Compound activity: PubChem BioAssay, National Center for Advancing Translational Sciences (NCATS)
D2 PAM = Beta-Arrestin HTS for Positive Allosteric Modulators of the Human D2 Dopamine Receptor: Potentiators; D(2) dopamine receptor (Homo sapiens), P14416; DiscoveRx D2 beta-arrestin cells, luminescence, 90 min; 100% = 57 uM dopamine signal; potentiation, % (test concentration not listed); 0.23% of 360,000 active; AID 624464, 2012; active = potentiation of 50% or more; inconclusive = 30% to 50%; inactive = 30% or less;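 note: compound concentration not given in the record; tested on top of an EC20 dose of dopamine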
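PathHunter beta-arrestin assay in DiscoveRx D2 cells. Compounds were added with an EC20 of dopamine (50 nM final) for 90 min at 37 deg C. Luminescence was read 1 h after detection reagent, with 57 uM dopamine as the EC100 control.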
TRPML1 inh = qHTS for Inhibitors of the Human Mucolipin Transient Receptor Potential 1 (TRPML1); AID 624415, 2012; 0.02% of 390,000 active; TRPML1-inducible cells, Ca2+ dye fluorescence, FDSS; stronger effect = lower value; inhibition of EC80 agonist-evoked calcium signal; activity change, negative = inhibition, % (no concentration beside the values); in the data active means activity change below about -50%; inconclusive means about -30% to -50%; inactive means above about -30%;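 note: stimulus is agonist 54-4 at its EC80 concentration; % is set by controls: 0 for no effect and ±100 for the full control effect; compound concentration not given in the record; the text of the record puts the active cut at -80%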
Target sequence (Q9GZU1 whole entry, looked up): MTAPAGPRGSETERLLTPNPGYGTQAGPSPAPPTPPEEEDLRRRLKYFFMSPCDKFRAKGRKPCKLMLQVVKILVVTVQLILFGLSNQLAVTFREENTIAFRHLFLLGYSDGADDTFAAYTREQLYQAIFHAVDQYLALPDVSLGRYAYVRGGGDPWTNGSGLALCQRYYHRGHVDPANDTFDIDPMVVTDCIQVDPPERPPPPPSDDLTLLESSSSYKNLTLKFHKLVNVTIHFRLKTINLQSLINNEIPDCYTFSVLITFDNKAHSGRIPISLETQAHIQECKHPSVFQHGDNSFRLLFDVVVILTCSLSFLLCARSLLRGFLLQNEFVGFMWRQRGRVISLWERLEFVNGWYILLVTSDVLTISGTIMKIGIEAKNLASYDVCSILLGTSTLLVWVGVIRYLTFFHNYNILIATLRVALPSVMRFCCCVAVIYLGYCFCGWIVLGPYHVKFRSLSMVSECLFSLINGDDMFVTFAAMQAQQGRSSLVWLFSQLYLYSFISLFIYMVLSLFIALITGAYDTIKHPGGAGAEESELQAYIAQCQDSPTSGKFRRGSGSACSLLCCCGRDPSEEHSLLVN
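Tet-induced TRPML1-DL cells loaded with Ca8 no-wash calcium dye were read kinetically on FDSS. Compound addition was followed by EC80 agonist 54-4 (4 uM final); inhibition was read over 110 s.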
TRPML1 ag = qHTS for Agonists of the Human Mucolipin Transient Receptor Potential 1 (TRPML1); TRPML1-expressing cells, Ca2+ dye fluorescence, FDSS; host cell line not named in the record; reference of the full effect not given here; activation, % (concentration not given with the values); 0.12% of 410,000 active; AID 624414, 2012; in the data active = activation above about 50%; inconclusive = about 30% to 50%; inactive = below about 30%; note: 0% is about no effect; the text of the record puts the active cut at 80%
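Cells: TRPML1-DL, 1X Tet inducer, ~16 h at 37 degrees C/5% CO2. Dye: ABD Ca8 no-wash + quencher, 45-90 min RT. Read: 10 s baseline, compound add, 110 s agonist phase; 54-4 EC80 (4uM final), 110 s antagonist phase.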
CtBP-E1A blk = qHTS Assay for Inhibitors of the CtBP/E1A Interaction; CtBP / adenovirus E1A interaction (AlphaScreen); AlphaScreen GST-E1A/His-CtBP binding, 1536-well; stronger effect = lower value; control for the full effect not named in the record; activity change, % (no concentration beside the values); 0.49% of 340,000 active; AID 651724, 2012; in the data active means activity change below about -65%; inconclusive means about -30% to -65%; inactive means above about -30%; note: % is set by controls: 0 for no effect and ±100 for the full control effect; compound concentration not given in the record
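Homogeneous bead-based format: GST-tagged E1A captured on glutathione donor beads, His-tagged CtBP on nickel acceptor beads; compounds precede bead addition by 2 h at 37 °C.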
TRPV1 PAM = HTS Assay for Compounds that Act as Potentiators of the Vanilloid Receptor 1. AID 540277, 2011. Transient receptor potential cation channel subfamily V member 1 (Homo sapiens), Q8NER1. 0.02% of 320,000 active. TRPV1-expressing cells, Fluo-8 calcium influx, capsaicin EC20 potentiation; host cell line not named in the record; control for the full effect not named in the record. potentiation, % at 8.33 µM; active means potentiation above 80%; inconclusive means 30% to 80%; inactive means below 30%; note: 0% is about no effect
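TRPV1-expressing cells were cultured overnight at 35.5C and loaded with Fluo-8 calcium dye for 40 to 90 min at room temperature. After a 10 s baseline, compound was added and calcium influx was read kinetically for 3 min (ex 480/em 520 nm).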
Six1-Eya2 inh = qHTS Assay for Inhibitors of the Six1/Eya2 Interaction; Homeobox protein SIX1 (Homo sapiens) + Protein phosphatase EYA2 (Homo sapiens), …; AlphaScreen GST-Six1/His-Eya2 binding, biochemical; stronger effect = lower value; control for the full effect not named in the record; activity change, % (test concentration not listed); 0.56% of 360,000 active; in the data active = activity change below about -65%; inconclusive = about -30% to -65%; inactive = above about -30%; note: % is set by controls: 0 for no effect and ±100 for the full control effect; compound concentration not given in the record
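GST-Six1 + His-Eya2 (5X stock: 250/500 nM); Tris pH 8.0, 300 mM NaCl, 0.05% BSA, 0.02% Tween 20; GSH donor/Ni acceptor beads; 1 h 37 °C dark; AlphaScreen readout.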
* = called active by the depositor; ? = inconclusive; nt = not tested or not shown; & = joins results of further samples.

Structure	D2 PAM	TRPML1 inh	TRPML1 ag	CtBP-E1A blk	TRPV1 PAM	Six1-Eya2 inh
COc1ccc(NC(=O)CS(=O)c2ccc(F)cc2)cc1 (stereo not drawn)	-14	29	0.5	5	-6	6
C#CCOCC1CN(C)C(=O)O1 (stereo not drawn)	-4	3	0.1	3	nt	-3
CCOC(=O)c1cnc2ccc(Cl)cc2c1N1CCN(C)CC1	-27	4	-0.1	11	-19	-4
O=C1Nc2ccccc2/C1=C\C(=O)c1ccccc1	-14	38	0.0	3	-16	7
Cc1csc(NC(=O)CSc2nc3ccccc3c(=O)[nH]2)n1	-27	-22	1.2	2	6	-11
O=C(O)CCC(=O)Nc1nc2ccc([N+](=O)[O-])cc2s1	-6	-2	-0.4	5	12	-1
Cc1ccc(NC(=O)c2ncn(CC(=O)NCc3ccc4[nH]ccc4c3)n2)cc1C	-4	18	0.4	-16	nt	-4
c1ccc2c(CN3CCOCC3)c3ccccc3c(CN3CCOCC3)c2c1	2	5	8.2	6	-2	0
CN=C1N(C)C[C@@H]2[C@@H]3C(=O)N(C)C(=O)[C@@H]3[C@](C)(C(=O)OC)N12	-1	-19	1.1	41	nt	39
C=CC[C@@H](CC(=O)N[C@H](CO)Cc1ccccc1)C(=O)N[C@@H](COC(=O)[C@@H](CC=C)CC(=O)OC(C)(C)C)Cc1ccccc1	nt	0	-0.9	4	nt	0
O=C(CCCCCn1c(=S)[nH]c2ccc(N3CCOCC3)cc2c1=O)NCc1cccc(Cl)c1	-3	-3	0.3	-3	?	-1
O=C(CN1CCOCC1)NCCNC(=O)CN1CCOCC1	-16	-11	2.1	5	4	0
CCN1C(=NCC(C)C)N[C@@H](c2cccc(C(F)(F)F)c2)C(C(=O)OC)=C1C	-17	-9	1.3	0	-27&19	3
CC(C)OCCCNC(=O)COCC(=O)Nc1ccc(OCCc2ccccc2)cc1	-9	-6	-0.3	7	-4	-1
CCN(C(=O)COC(=O)c1cc2c(s1)CCC(C)C2)c1c(N)n(Cc2ccccc2)c(=O)[nH]c1=O (stereo not drawn)	1	-3	-0.3	8	nt	0
c1ccc(OCCN2CCNCC2)cc1	-4	-6	-0.6	3	nt	16
CCc1ccc(-c2cc(C)no2)cc1S(=O)(=O)N1CCN(C(=O)c2ccco2)CC1	-2	-3	1.2	?	-20	-7
CC(C)(C)c1ccc(OCC(=O)N/N=C/c2ccc(N3CCOCC3)cc2)cc1	10	22	2.6	-6	-7	-12
COc1cc(C(=O)Nc2ccc3c(c2)OCCO3)ccc1-n1cnnn1	-12	-16	-1.0	0	-34	-3
COc1ccc(CNCc2ccc(C)cc2)c(OC)c1	-23	?	-1.2	2	0	4
CCCCC(=O)NC(c1ccc(C(C)C)cc1)c1ccc2cccnc2c1O (stereo not drawn)	-1	-2	-0.1	-22	-19	-24
Cc1cc(C(=O)Cn2cc(C(F)(F)F)ccc2=O)c(C)n1-c1ccccc1	-17	-4	2.8	-11	-7	-10
O=C(O)CC1NC(=O)N(c2ccc(Cl)cc2)C1=O (stereo not drawn)	-2	0	0.7	-1	-1	8
CN(CC(=O)NNC(=O)CCNS(=O)(=O)c1ccccc1)S(=O)(=O)c1ccc(Cl)cc1	-15	-10	1.0	-20	21	6
COc1ccc(-c2cc(C(=O)N3CCN(c4ncccn4)CC3)c3ccccc3n2)cc1	20	7	0.4	nt	6	-1

Going on with the list:
Structure	D2 PAM	TRPML1 inh	TRPML1 ag	CtBP-E1A blk	TRPV1 PAM	Six1-Eya2 inh
CN1C(=O)C(O)(C2OC(C)(C)CCC2=O)c2ccccc21 (stereo not drawn)	-10	8	-0.2	6	19	8
CCCNC(=O)C1CN(S(=O)(=O)c2ccc(Cl)s2)c2ccccc2O1 (stereo not drawn)	0	-10	1.0	6	-3	0
Cc1cccn2c(=O)c(/C=C(\C#N)S(=O)(=O)c3ccccc3)c(N3CCN(C)CC3)nc12	-5	11	0.2	7	-8	-10
COCCCNC(=O)C(=O)Nc1cc2c3c(c1)CCC(=O)N3CCC2	-1	6	-0.1	7	-9	1
Nc1cccc2c1C(=O)N(Cc1nnc(-c3ccccc3Br)o1)C2=O	-2	-5	3.6	3	5	11
CCOc1ccc(NC(=O)COc2ccc(OC)cc2)cc1	-5	29	1.9	nt	4	-7
O=C(Nc1ccc(Br)cc1)c1ccc(CSC2=NCCS2)cc1	-27	38	-0.4	5	-18	-1
O=C(Nc1cccnc1)c1ccc(S(=O)(=O)c2ccc(Cl)cc2)cc1	-7	-1	-0.8	-2	-20	-1
COc1ccccc1N1CCN(C(=O)C(C)CS(=O)(=O)c2ccc3c(c2)NC(=O)CS3)CC1 (stereo not drawn)	-8	8	1.8	nt	6	-8
O=C(c1ccccc1)N1CCOC(O)(c2ccccc2)C1c1ccccc1 (stereo not drawn)	-13	-14	0.8	0	nt	4
CSc1ccc(C(=O)c2[nH]c(=O)[nH]c2C)cc1	-8	12	0.3	-1	8	-7
Cc1ccc(S(=O)(=O)NCC(C)NC(=O)CN2CCOCC2)cc1 (stereo not drawn)	-1	-2	0.8	3	1	-5
CCOc1ccc(-n2ccc(=O)c(C(=O)Nc3ccc(S(=O)(=O)Nc4ncccn4)cc3)n2)cc1	0	-6	-0.5	4	14	1
O=C(NN1CCOCC1)c1ccc(Br)cc1	4	7	0.0	-9	nt	-2
CSc1c(CC(=O)Nc2ccccc2Cl)n(Cc2ccccc2)c2ccccc12	-17	2	2.5	2	18	-2
COC(=O)CSc1nnnn1-c1ccccc1	-15	2	0.4	2	-7	-3
Cc1cc(NC(=O)c2cc(-c3ccccn3)nc3c(Cl)cccc23)no1	-6	0	0.1	3	-10	-2
CN(Cc1c(F)cccc1Cl)C(=O)c1ccc(NS(=O)(=O)c2ccc3[nH]c(=O)[nH]c3c2)cc1	-9	0	0.1	-4	-7	14
COCCn1c(SCC(=O)N2CCc3ccccc32)nc2c(c1=O)SC(C)C2 (stereo not drawn)	-1	13	1.2	3	-10	-1
CC[N+]1(CC)CC2=Cc3ccccc3CC2C1 (stereo not drawn)	-3	7	0.6	nt	30	2
COc1ccc(-c2nc3c(c(=O)n(C)c(=O)n3C)n2CC2CC(c3ccccc3)=NO2)cc1OC (stereo not drawn)	0	-1	0.3	-3	nt	0
OCc1nc2nc(Cl)c(Cl)nc2[nH]1	-4	-17	-0.2	nt	3	7
Cc1cc(C)nc(Nc2n[nH]c(COc3ccc4ccccc4c3)n2)n1	0	11	-0.2	-4	19	-1
O=c1c(Cc2ccccc2)c(O)c2cccc3c4c(n1c23)CCCC4	-4	-5	-0.6	1	-10	-22
C1CN(c2nc(N3CCOCC3)nc(N3CCOCC3)n2)CCO1	-3	nt	nt	5	-9	2

(next part)
Structure	D2 PAM	TRPML1 inh	TRPML1 ag	CtBP-E1A blk	TRPV1 PAM	Six1-Eya2 inh
Cn1cc(CN2CCC(C(=O)N3CCCC3)CC2)c(-c2ccccc2F)n1	-1	-2	0.1	-18	-16	1
Cn1cc(S(=O)(=O)N2CCc3ccccc32)cc1C(=O)Nc1ccc(Cl)cc1	-1	-11	0.0	-12	24	2
CCCCN1C(=O)/C(=C/C=C2\SCCN2C)SC1=S	-19	-3	3.0	6	-5	?
Cc1ccc(-c2ccccc2NC(=O)CS(=O)CC(=O)Nc2ccc(C)c(Cl)c2)o1 (stereo not drawn)	-22	-6	0.2	-11	16	-23
O=C(Cn1cc(C(F)(F)F)ccc1=O)N1CCc2ccccc2C1	-1	-4	0.6	4	6	0
Cc1cc(C)cc(SCc2noc(C(=O)NCC3CCCO3)c2C(=O)O)c1 (stereo not drawn)	-7	-10	-0.9	11	5	-6
NC(=O)COc1c(-c2ccco2)oc2ccccc2c1=O	4	9	-0.3	-3	-8	?
CNC(=O)c1csc(-c2ccncc2)n1	-7	-12	-0.2	5	-10	4

As a working copy, 10 of the compounds above:
Structure	D2 PAM	TRPML1 inh	TRPML1 ag	CtBP-E1A blk	TRPV1 PAM	Six1-Eya2 inh
OCc1nc2nc(Cl)c(Cl)nc2[nH]1	-4	-17	-0.2	nt	3	7
Cc1cc(C)nc(Nc2n[nH]c(COc3ccc4ccccc4c3)n2)n1	0	11	-0.2	-4	19	-1
O=c1c(Cc2ccccc2)c(O)c2cccc3c4c(n1c23)CCCC4	-4	-5	-0.6	1	-10	-22
C1CN(c2nc(N3CCOCC3)nc(N3CCOCC3)n2)CCO1	-3	nt	nt	5	-9	2
Cn1cc(CN2CCC(C(=O)N3CCCC3)CC2)c(-c2ccccc2F)n1	-1	-2	0.1	-18	-16	1
Cn1cc(S(=O)(=O)N2CCc3ccccc32)cc1C(=O)Nc1ccc(Cl)cc1	-1	-11	0.0	-12	24	2
CCCCN1C(=O)/C(=C/C=C2\SCCN2C)SC1=S	-19	-3	3.0	6	-5	?
Cc1ccc(-c2ccccc2NC(=O)CS(=O)CC(=O)Nc2ccc(C)c(Cl)c2)o1 (stereo not drawn)	-22	-6	0.2	-11	16	-23
O=C(Cn1cc(C(F)(F)F)ccc1=O)N1CCc2ccccc2C1	-1	-4	0.6	4	6	0
Cc1cc(C)cc(SCc2noc(C(=O)NCC3CCCO3)c2C(=O)O)c1 (stereo not drawn)	-7	-10	-0.9	11	5	-6

Not a hit list; 0.95% or so of the library scored in one or more.
